TRPML1 inh – qHTS for Inhibitors of the Human Mucolipin Transient Receptor Potential 1 (TRPML1); TRPML1-inducible cells, Ca2+ dye fluorescence, FDSS; hits give low values; inhibition of EC80 agonist-evoked calcium signal; activity change, negative = inhibition, % (no concentration beside the values); hit rate 0.02% among 390,000; AID 624415, 2012; in the data active means activity change below about -50%; inconclusive means about -30% to -50%; inactive means above about -30%;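 also: stimulus is agonist 54-4 at its EC80 concentration; % is scaled to controls: 0 for no effect and ±100 for the full control effect; compound concentration not given in the record; the text of the record puts the active cut at -80%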
Target sequence (Q9GZU1 whole entry, looked up): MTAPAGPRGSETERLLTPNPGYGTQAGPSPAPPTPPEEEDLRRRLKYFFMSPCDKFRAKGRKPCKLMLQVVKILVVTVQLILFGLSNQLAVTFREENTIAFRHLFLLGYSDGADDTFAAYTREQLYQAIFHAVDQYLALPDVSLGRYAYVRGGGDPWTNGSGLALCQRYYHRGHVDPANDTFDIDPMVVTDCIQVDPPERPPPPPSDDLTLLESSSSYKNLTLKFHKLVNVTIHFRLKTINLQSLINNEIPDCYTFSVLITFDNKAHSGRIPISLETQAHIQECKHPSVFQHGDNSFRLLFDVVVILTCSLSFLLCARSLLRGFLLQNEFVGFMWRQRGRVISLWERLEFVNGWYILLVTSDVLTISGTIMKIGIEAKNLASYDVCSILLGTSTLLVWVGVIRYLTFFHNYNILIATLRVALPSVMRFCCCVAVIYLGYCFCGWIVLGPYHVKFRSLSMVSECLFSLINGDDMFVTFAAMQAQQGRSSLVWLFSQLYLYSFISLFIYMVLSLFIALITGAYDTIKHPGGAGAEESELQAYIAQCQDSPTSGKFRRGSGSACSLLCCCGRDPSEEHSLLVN
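Tet-induced TRPML1-DL cells loaded with Ca8 no-wash calcium dye were read kinetically on FDSS. Compound addition was followed by EC80 agonist 54-4 (4 uM final); inhibition was read over 110 s.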
PINK1 expr mod – A Quantitative High throughput Screen to Identify Chemical Modulators of PINK1 Expression; hit rate 0.2% among 410,000; Potency, µM (top dose mostly 76.6 µM), inactives show top-dose activation (PINK1 increase), most hits filed as activators; PINK1 immunofluorescence, high-content cytometry, 24 h; AID 624263, 2012; active = well fitted activation curve with a large enough effect; inconclusive = small, poorly fitted or top-dose-only effect; inactive = flat fitted curve, though single readings scatter; cell line not stated here;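 also: potency is read from the fitted curve at half-maximal effect; % of control where 0% means no effect; nearly all actives have a fitted effect of over 65% in size; a mitochondrial uncoupler was the plate control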
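PINK1 protein level read as immunofluorescence by microplate cytometer in a fixed, stained stable cell line after 24 h exposure to five compound concentrations, with CCCP as control.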
TRPML1 agonist – qHTS for Agonists of the Human Mucolipin Transient Receptor Potential 1 (TRPML1). TRPML1-expressing cells, Ca2+ dye fluorescence, FDSS; host cell line not named in the record; reference of the full effect not given here. Mucolipin-1 (Homo sapiens), Q9GZU1. hit rate 0.12% among 410,000. activation, % (concentration not given with the values); in the data active = activation above about 50%; inconclusive = about 30% to 50%; inactive = below about 30%; also: 0% is about no effect; the text of the record puts the active cut at 80%
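Cells: TRPML1-DL, 1X Tet inducer, ~16 h at 37 degrees C/5% CO2. Dye: ABD Ca8 no-wash + quencher, 45-90 min RT. Read: 10 s baseline, compound add, 110 s agonist phase; 54-4 EC80 (4uM final), 110 s antagonist phase.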
Six1-Eya2 blk – qHTS Assay for Inhibitors of the Six1/Eya2 Interaction. hit rate 0.56% among 360,000. AlphaScreen GST-Six1/His-Eya2 binding, biochemical; hits give low values; control for the full effect not named in the record. activity change, % (concentration not given with the values); in the data active = activity change below about -65%; inconclusive = about -30% to -65%; inactive = above about -30%; also: % is scaled to controls: 0 for no effect and ±100 for the full control effect
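Six1/Eya2 binding was read as AlphaScreen signal after compounds were pinned into GST-Six1 plus His-tagged Eya2 (5X stock 250/500 nM) in pH 8.0 Tris/NaCl/TCEP buffer, beads added, then incubated 1 h, 37 C, dark.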
D2 PAM – Beta-Arrestin HTS for Positive Allosteric Modulators of the Human D2 Dopamine Receptor: Potentiators | DiscoveRx D2 beta-arrestin cells, luminescence, 90 min; 100% = 57 uM dopamine signal | hit rate 0.23% among 360,000 | potentiation, % (no concentration beside the values) | AID 624464, 2012; active = potentiation of 50% or more; inconclusive = 30% to 50%; inactive = 30% or less;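 also: compound concentration not given in the record; tested on top of an EC20 dose of dopamine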
Target sequence (P14416 whole entry, looked up): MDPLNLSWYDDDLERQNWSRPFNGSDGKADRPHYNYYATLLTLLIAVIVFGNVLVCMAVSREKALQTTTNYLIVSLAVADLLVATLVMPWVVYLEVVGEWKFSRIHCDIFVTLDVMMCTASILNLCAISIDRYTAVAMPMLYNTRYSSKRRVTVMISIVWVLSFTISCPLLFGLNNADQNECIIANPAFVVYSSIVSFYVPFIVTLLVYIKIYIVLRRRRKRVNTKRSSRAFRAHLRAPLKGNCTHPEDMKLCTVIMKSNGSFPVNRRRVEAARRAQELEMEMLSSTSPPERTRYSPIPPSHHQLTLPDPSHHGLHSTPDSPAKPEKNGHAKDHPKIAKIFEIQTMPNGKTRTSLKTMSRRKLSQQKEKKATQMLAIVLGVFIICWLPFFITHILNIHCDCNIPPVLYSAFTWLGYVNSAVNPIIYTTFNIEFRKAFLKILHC
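PathHunter beta-arrestin assay in DiscoveRx D2 cells. Compounds were added with an EC20 of dopamine (50 nM final) for 90 min at 37 deg C. Luminescence was read 1 h after detection reagent, with 57 uM dopamine as the EC100 control.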
D2 agonist – Beta-Arrestin HTS for Positive Allosteric Modulators of the Human D2 Dopamine Receptor: Agonists; DiscoveRx PathHunter D2 beta-arrestin, luminescence, 90 min; 100% = 57 uM dopamine signal; activation, % (test concentration not listed); hit rate 0.084% among 360,000; in the data active = activation above about 40%; inconclusive = about 15% to 40%; inactive = below about 15%; also: compound concentration not given in the record; the text of the record calls up to 30% inactive
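Agonist mode: compounds alone added to overnight-plated D2 PathHunter cells for 90 min at 37 C, with 57 uM final dopamine (EC100) defining full response. Beta-arrestin recruitment detected by chemiluminescent reagent, read after 1 h at ambient temperature.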
Active calls of the source: *; u = inconclusive; x = no result given; & = joins results of further samples; [ ] = dose if it differs, or a comment.

cpd	structure	TRPML1 inh	PINK1 expr mod	TRPML1 agonist
1	CN(c1ccccc1)S(=O)(=O)c1cccc(NC(=O)CN2C(=O)NC3(CCCC3)C2=O)c1	-7	2.6%	0.0
2	Cc1ccccc1NC(=O)C(C)OC(=O)CCC(=O)N(CC(C)C)c1c(N)n(CC(C)C)c(=O)[nH]c1=O (stereo not given)	5	-0.7%	1.6
3	O=C(NC1CCCCC1)NC1CCN(S(=O)(=O)c2ccc3c(c2)OCCO3)CC1	16	0.7%	0.0
4	COc1ccc(C(=O)NC(Cn2ccnc2)C(C)(C)C)cc1OC1CCN(C(C)C)CC1 (stereo not given)	-9	-0.4%	-0.2
5	CCOC(=O)C1(C)CCCCCN1C(=O)c1ccc(N(C)C)cc1 (stereo not given)	x	-0.3%	-0.6
6	COc1ccc(NC(=O)CCc2nnc3n(Cc4ccccc4Cl)c(=O)c4ccccc4n23)cc1	-15	0.2%	0.4
7	Cc1cccn2c(=O)c3cc(C#N)c(=O)n(-c4nnc(SCc5ccc(F)cc5)s4)c3nc12	-12	15%	1.5
8	CC(C)c1ccccc1-n1c(-c2cccnc2)n[nH]c1=S	36	-0.7%	0.3
9	CC(c1ccco1)N(C(=O)c1cccs1)c1ccccn1 (stereo not given)	-7	-1.3%[38.3 µM]	0.3
10	O=C1CC(N(C(=O)c2ccco2)c2ccc(F)cc2)C(=O)N1c1ccc(F)cc1 (stereo not given)	-2	-1.4%[38.3 µM]	-0.7
11	COc1ccccc1CNC(=O)CN1C(=O)N(C)C2(CCCCC2)C1=O	-3	2.9%	-0.7
12	Cc1ccc(F)cc1NC(=O)CCC(=O)c1cccs1	4	-0.6%	-0.7
13	CC1CC(C)CN(S(=O)(=O)CCNC(=O)c2ccccc2)C1 (stereo not given)	0	-1.2%	-0.9
14	CCc1cccc(C)c1NC(=S)N(CCCN1CCN(C)CC1)Cc1cccs1	-10	-1.0%	-0.7
15	Cc1ccccc1NCC(=O)N/N=C/c1ccc([N+](=O)[O-])cc1	-16	5.2%	-0.1

cpd	Six1-Eya2 blk	D2 PAM	D2 agonist
1	2	8	-0.3
2	3	2	-2.4
3	3	-8	2.9
4	0	-15	-4.2
5	3	0	2.5
6	x	x	x
7	x	x	x
8	5	-10	2.4
9	6	3	-0.2
10	2	-3	-0.4
11	1	2	-0.7
12	2	-17	-0.5
13	10	-3	-1.9
14	-2	-8	-0.5
15	-18	-5	3.8

Going on with the list.
cpd	structure	TRPML1 inh	PINK1 expr mod	TRPML1 agonist
16	Cc1cc(NS(=O)(=O)c2ccc(NC(=O)COc3ccc(Cl)c(C)c3)cc2)no1	-4	1.4%	-0.3
17	CN(CC(=O)Nc1cccc(F)c1)C(=O)CSc1ccccc1	-7	3.5%	-0.7
18	CCc1ccc(CN2CCN(S(=O)(=O)Cc3ccccc3)CC2)cc1	-7	6.8%[38.3 µM]	0.1
19	Cc1scc(C(=O)N/N=C/c2ccc(Cl)s2)c1C	4	12%	3.0
20	CCOC(=O)CCN(Cc1cccs1)S(=O)(=O)c1ccc(F)cc1	2	6.7%[38.3 µM]	0.3
21	CCOC(=O)c1c(NC(=O)CSc2nccn2C)sc(C(=O)NC)c1C	5	-0.3%	0.2
22	COc1cc(O)ccc1-c1nc2ccc(Br)cn2c1Nc1ccccc1C	22	-0.8%	-0.1
23	O=C(COc1ccccc1)Nc1ccc(N2CCN(C(=O)c3cccs3)CC2)cc1	-1	0.7%	1.0
24	COc1ccc(N2CC(C(=O)Nc3ccccc3-c3nc(-c4ccc(C)cc4)no3)CC2=O)cc1 (stereo not given)	4	1.3%	-0.4
25	Cc1ccccc1N1CCN(Cc2c(C#N)c3ccccc3n2C)CC1	20	-0.1%[38.3 µM]	0.1
26	O=C(c1ccccc1)N1CCCCC(Cl)C1=O (stereo not given)	30	-2.0%	0.6
27	CC(C)NS(=O)(=O)c1ccc(OCC(=O)Nc2ccc3c(c2)OCO3)cc1	-11	-1.0%	1.1
28	CN(C)CC/C=C1/c2ccccc2Sc2ccc(Cl)cc21	-2&13	1.2%&4.8%	1.5&1.0
29	O=C(NC(=S)Nc1cc(S(=O)(=O)N2CCOCC2)ccc1N1CCOCC1)c1ccco1	-7	-1.1%	-1.7
30	Cc1ccc(N=Cc2ccc[nH]2)c(O)c1	-2	1.7%[38.3 µM]	-0.3

cpd	Six1-Eya2 blk	D2 PAM	D2 agonist
16	-13	6	3.7
17	2	-20	-1.1
18	2	-6	-3.2
19	-6	-32	3.9
20	13	-9	-4.5
21	8	-5	0.1
22	x	x	x
23	7	-2	0.0
24	x	x	x
25	23	-15	-0.6
26	-2	-9	-1.5
27	-6	-6	1.4
28	-20&-6	-36&-21	-6.0&-4.1
29	-2	-11	-6.1
30	-20	26	2.0

More structures
cpd	structure	TRPML1 inh	PINK1 expr mod	TRPML1 agonist
31	COc1ccccc1-c1ncn(Cc2cccc(-c3ccccc3)c2)c1CC(C)C	x	1.1%	1.9
32	O=C(NCC1CCCO1)c1cc2nc(-c3ccco3)cc(C(F)(F)Cl)n2n1 (stereo not given)	-4	2.8%	0.1
33	Cc1ccc(NC(=S)N2CCN(C)CC2)c(C)c1	-14	-3.3%	0.0
34	CCCOc1cccc(C(=O)N/N=C/c2ccoc2)c1	0	-0.5%	0.3
35	O=C(N/N=C/c1ccc(O)c(O)c1)c1cccc(S(=O)(=O)N2CCCC2)c1	-12	1.9%	0.0
36	Cc1cc(C)cc(-n2cnc3cc(C(=O)O)ccc32)c1	2	-1.9%[38.3 µM]	-0.7
37	COc1ccc(-c2cc(=O)oc3cc(OCC(=O)N4C[C@H]5C[C@@H](C4)c4cccc(=O)n4C5)ccc23)cc1	x	1.2%	x
38	Nc1nc(SCc2ccccc2)n[nH]1	6	0.7%	-0.1
39	Cc1oc2cc3oc(=O)c(CCC(=O)NCCC(=O)O)c(C)c3cc2c1C	-3	0.3%	3.2
40	Cn1c(NCc2ccco2)nc2c1c(=O)n(Cc1ccc(Br)cc1)c(=O)n2C	17	-2.7%[38.3 µM]	0.2
41	CCCCOC(=O)c1ccc(NC(=O)c2cc(Cl)c(Cl)cc2C(=O)O)cc1	-3	4.0%	0.1
42	CCN(CC)C(=O)Oc1ccc2oc(=O)cc(-c3cc4cccc(OC)c4o3)c2c1	-1	0.7%	0.8
43	O=C(N/N=C/c1cccc(O)c1)c1cc2c(ccc3ccccc32)o1	-3	1.7%	-0.9
44	CCc1ccc(CNC(=O)CSc2c3c(nc4ccc(Cl)cc24)CCCC3)cc1	-13	0.1%	-0.5
45	CN1CCN(c2ccc(NC(=S)NC(=O)c3cccc4ccccc34)cc2)CC1	7	-0.6%	0.4

cpd	Six1-Eya2 blk	D2 PAM	D2 agonist
31	-20	x	x
32	0	-25	-1.5
33	14	-16	-1.9
34	-12	-17	0.1
35	-28	23	6.0
36	5	-3	-1.3
37	1	-15	1.7
38	8	2	1.9
39	-13	-7	-1.7
40	-19	9	0.7
41	-3	-24	1.9
42	-1	-1	-1.8
43	-1	13	1.2
44	x	x	x
45	u	-10	0.4

Sorted by count of non-hydrogen atoms (ascending): part of the list above
cpd	structure	TRPML1 inh	PINK1 expr mod	TRPML1 agonist
26	O=C(c1ccccc1)N1CCCCC(Cl)C1=O (stereo not given)	30	-2.0%	0.6
15	Cc1ccccc1NCC(=O)N/N=C/c1ccc([N+](=O)[O-])cc1	-16	5.2%	-0.1
18	CCc1ccc(CN2CCN(S(=O)(=O)Cc3ccccc3)CC2)cc1	-7	6.8%[38.3 µM]	0.1
32	O=C(NCC1CCCO1)c1cc2nc(-c3ccco3)cc(C(F)(F)Cl)n2n1 (stereo not given)	-4	2.8%	0.1
3	O=C(NC1CCCCC1)NC1CCN(S(=O)(=O)c2ccc3c(c2)OCCO3)CC1	16	0.7%	0.0
1	CN(c1ccccc1)S(=O)(=O)c1cccc(NC(=O)CN2C(=O)NC3(CCCC3)C2=O)c1	-7	2.6%	0.0

cpd	Six1-Eya2 blk	D2 PAM	D2 agonist
26	-2	-9	-1.5
15	-18	-5	3.8
18	2	-6	-3.2
32	0	-25	-1.5
3	3	-8	2.9
1	2	8	-0.3

Continuation.
cpd	structure	TRPML1 inh	PINK1 expr mod	TRPML1 agonist
46	CC(=O)c1cccc(NC(=O)c2csc3c2CCCCC3)c1	50	8.3%	3.1
47	Cc1ccc(NC(=O)CCN2C(=O)c3ccccc3Sc3ncccc32)c(Cl)c1	-12	1.4%	-0.8
48	C#CCN1c2ccccc2Sc2cccnc21	0	4.2%	-0.4
49	O=C(CC1C=CCC1)Nc1ccccc1 (stereo not given)	-15	1.3%	-0.5
50	N#Cc1ccccc1NC(=O)CSc1cn[nH]n1	3	-0.3%	-0.4
51	O=C(CN1CCSC1=O)N1CCN(S(=O)(=O)c2ccc(Cl)cc2)CC1	7	-0.1%	0.4
52	Cc1cccc(NC(=O)COc2coc(CN3CCc4ccccc4C3)cc2=O)c1	3	-1.8%	2.6
53	O=C(Nc1ccc(F)cc1)[C@H](CSCc1ccccc1)N1Cc2ccccc2C1=O	24	1.3%	2.1
54	COc1ccc(-c2cc3nc(C)c(CCC(=O)NCc4ccc(F)cc4)c(C)n3n2)c(OC)c1	13	3.5%	-0.7
55	CCOC(=O)C(C)Oc1cccc2c(=O)n(CC(=O)Nc3ccc(OC)cc3)ccc12 (stereo not given)	-4	3.3%	0.4
56	Cc1ccc(C(=O)Nc2sc(C)c(C)c2C(=O)c2ccccc2)cc1	12	7.8%	0.6

cpd	Six1-Eya2 blk	D2 PAM	D2 agonist
46	-1	-1	-5.5
47	x	x	x
48	u	-7	-2.0
49	0	-6	2.3
50	4	1	0.5
51	3	-11	-2.8
52	3	9	-4.4
53	x	x	x
54	3	-5	0.7
55	-19	-7	-3.8
56	-17	-5	-0.4

An excerpt from above in order of the Six1-Eya2 blk value, highest first:
| No. | structure | Six1-Eya2 blk |
| --- | --- | --- |
| 50 | N#Cc1ccccc1NC(=O)CSc1cn[nH]n1 | 4 |
| 51 | O=C(CN1CCSC1=O)N1CCN(S(=O)(=O)c2ccc(Cl)cc2)CC1 | 3 |
| 46 | CC(=O)c1cccc(NC(=O)c2csc3c2CCCCC3)c1 | -1 |

Compound activity (PubChem)
